Screening data as filed in PubChem BioAssay.
RecA intein inh – blocks M. tuberculosis RecA intein splicing; P9WHJ3; cell-free RecA intein splicing, fluorescence; inhibition, %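 (about 9 µM by stock and volumes)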; 290,000 compounds, 0.75% hits; AID 2221; in the data active = inhibition above about 30%;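 also: 0% = vehicle wells and 100% = reference inhibitor control wells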
Target sequence (P9WHJ3 whole entry, looked up): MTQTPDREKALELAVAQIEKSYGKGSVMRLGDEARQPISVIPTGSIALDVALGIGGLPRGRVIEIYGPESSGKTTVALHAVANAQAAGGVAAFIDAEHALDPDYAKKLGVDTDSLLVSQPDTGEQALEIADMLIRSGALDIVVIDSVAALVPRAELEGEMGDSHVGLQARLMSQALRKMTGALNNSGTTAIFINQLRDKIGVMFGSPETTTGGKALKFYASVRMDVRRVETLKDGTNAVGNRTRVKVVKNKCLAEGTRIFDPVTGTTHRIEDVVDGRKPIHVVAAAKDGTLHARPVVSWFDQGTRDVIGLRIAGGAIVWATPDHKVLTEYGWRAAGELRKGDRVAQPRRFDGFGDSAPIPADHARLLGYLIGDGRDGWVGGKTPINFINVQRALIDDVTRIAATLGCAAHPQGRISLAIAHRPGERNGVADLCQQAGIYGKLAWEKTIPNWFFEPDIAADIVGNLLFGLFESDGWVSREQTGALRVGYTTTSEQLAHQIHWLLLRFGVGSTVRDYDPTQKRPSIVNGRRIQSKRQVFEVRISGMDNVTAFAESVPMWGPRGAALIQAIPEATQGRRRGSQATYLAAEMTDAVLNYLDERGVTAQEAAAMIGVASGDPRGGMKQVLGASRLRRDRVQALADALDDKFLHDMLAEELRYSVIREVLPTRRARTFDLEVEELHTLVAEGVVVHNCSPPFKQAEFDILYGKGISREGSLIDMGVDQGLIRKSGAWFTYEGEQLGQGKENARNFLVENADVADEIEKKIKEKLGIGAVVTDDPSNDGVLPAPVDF
Mtb betalactam – beta-lactam sensitization of Mtb H37Rv. inhibition, % at 25 µM. 330,000 compounds, 0.27% hits. M. tuberculosis H37Rv growth with meropenem, percent inhibition; hits of this screen are not shown here;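 active = about 74% or more and at least 40 points above the plate without the antibiotic, then above 30% in a dose series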;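 also: growth measured after seven days incubation then overnight dye step; 0% = bacteria only wells and 100% = bacteria with antibiotic; twin plates without the antibiotic show which effects depend on it; some results filed as inactive read as strong as hits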
Arbovirus anti – blocks arbovirus infection. inhibition, % at 10 µM. 200,000 compounds, 0.37% hits. arbovirus infection cell-based antiviral screen;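 active = inhibition from about 30%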;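 also: bluetongue infection of BSR cells; cell survival read as ATP light after 72 h; 0% = infected wells without compound and 100% = uninfected wells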
YopH inh – blocks Yersinia enterocolitica YopH tyrosine phosphatase; inhibition, %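 (about 10 µM by stock and volumes)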; 140,000 compounds, 0.16% hits; fluorescence Ex485/Em525;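 active = inhibition of 50% or more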;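 also: controls were vehicle for no effect and minimum signal wells for full effect; inactives centre near -20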
Mtb growth – M. tuberculosis H37Rv growth inhibitors, H37Rv strain (AID 1626). M. tuberculosis H37Rv growth inhibition; higher % means a stronger effect. one-dose inhibition, % at 10 µM; IC50 in µM for titrated hits. 220,000 compounds, 0.95% hits;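 active = confirmed in a dose series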;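 also: bacteria incubated seven days before Alamar blue readout; 0% = bacteria only wells and 100% = bacteria with antibiotic wells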
Arbovirus anti repeat – second read-out of Arbovirus anti, no call of its own (marks repeat the call); inhibition, %; measured here: 10K subset replicate screen; many hits read low in the repeat;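 first of two repeat runs on a subset; 0% = infected and 100% = uninfected wells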
* hit, by the source's call; x = not tested or not shown.

SMILES	RecA intein inh	Mtb betalactam	Arbovirus anti	YopH inh	Mtb growth	others
Cc1cccc(NC(=O)C2C3CCC4C(CCC32)C4(Cl)Cl)c1 (stereo unspecified)	0.1	-4	-17	-15	0%
CCC(C)N(NC(C)=O)c1nc(Cl)nc(NC(C)C)n1 (stereo unspecified)	-1.4	-3	2	-18	-1%
Cc1ccc(Nc2nc(COC(=O)COc3ccc(C=O)cc3)cs2)cc1	-4.9	4	-10	-6	-1%
Cn1nnnc1SCCNC(=O)C1CCC(=O)N(Cc2ccccc2F)C1 (stereo unspecified)	0.9	3	x	x	x
CSc1ccc(/C=C2\C(=N)N3N=C(CC(=O)N4CCOCC4)SC3=NC2=O)cc1	-0.4	1	x	x	x
CN=C(NC)SC1CC(=O)N(c2ccccc2)C1=O (stereo unspecified)	-1.4	-3	8	-16	-2%	Arbovirus anti repeat=1
CCOC(=O)c1ccc(NC(=O)Cn2cccc2)cc1	0.4	86	-4	-42	>100µM*
Cc1ccc(C(=O)NNC(=O)CSc2nnc(-c3ccncc3)n2-c2ccc(C)cc2)cc1	3.1	-16	5	-39	-12%
CCn1c(=S)[nH]c2nc3c(cc2c1=O)CCCC3	-0.5	60	10	-13	-1%
CCCCn1c(N)c(N(CC)C(=O)CSc2nnc(-c3ccco3)n2CC)c(=O)[nH]c1=O	0.9	-7	x	x	x
CCOc1ccc(N(CC)S(=O)(=O)c2cccc3nsnc23)cc1	2.9	1	x	x	x
Cc1noc(C)c1CSc1ncnc2sc3c(c12)CCCCC3	10.0	-6	-6	-29	4%
CC(C)(C)N1NC(=O)Nc2ccccc2C1=O	0.6	1	9	-10	-3%
O=C(O)C/C(=C\c1cc(Br)cs1)c1nc2ccccc2o1	-1.3	-9	x	x	x
COc1ccccc1C(=O)COC(=O)c1ccc(N(C)C)cc1	-0.6	-5	-2	x	5%

Random excerpt: 7 records from the list.
SMILES	RecA intein inh	Mtb betalactam	Arbovirus anti	YopH inh	Mtb growth	others
CCOc1ccc(N(CC)S(=O)(=O)c2cccc3nsnc23)cc1	2.9	1	x	x	x
CN=C(NC)SC1CC(=O)N(c2ccccc2)C1=O (stereo unspecified)	-1.4	-3	8	-16	-2%	Arbovirus anti repeat=1
Cc1ccc(Nc2nc(COC(=O)COc3ccc(C=O)cc3)cs2)cc1	-4.9	4	-10	-6	-1%
Cc1cccc(NC(=O)C2C3CCC4C(CCC32)C4(Cl)Cl)c1 (stereo unspecified)	0.1	-4	-17	-15	0%
COc1ccccc1C(=O)COC(=O)c1ccc(N(C)C)cc1	-0.6	-5	-2	x	5%
CCOC(=O)c1ccc(NC(=O)Cn2cccc2)cc1	0.4	86	-4	-42	>100µM*
O=C(O)C/C(=C\c1cc(Br)cs1)c1nc2ccccc2o1	-1.3	-9	x	x	x

Following part.
SMILES	RecA intein inh	Mtb betalactam	Arbovirus anti	YopH inh	Mtb growth	others
O=C(Nc1nccs1)c1cc(S(=O)(=O)N2CCCCC2)ccc1Cl	0.1	-2	22	-31	0%	Arbovirus anti repeat=5
Cc1ccc(-n2nc(C)c(/C=N/NC(=O)c3cccnc3)c2Cl)cc1	3.2	3	-3	-21	0%
O=C(COC(=O)C1(c2ccc(Cl)cc2)CCCC1)Nc1ncc(C(F)(F)F)cc1Cl	-2.8	-1	10	-28	-11%
O=C(c1cc(COc2c(F)cccc2F)on1)N1CCC(c2ccccc2F)C1 (stereo unspecified)	14	-6	-12	x	5%
CCn1c(SCc2cccc(C(F)(F)F)c2)nnc1-c1ccco1	5.1	3	6	-160	-3%
CCN(CC)Cc1c(O)ccc2c(=O)c(-c3ccccc3)coc12	-2.0	0	x	x	x
Cc1ccc(NC(=O)CSCc2cc(=O)n3ccsc3n2)cc1	-2.3	0	x	x	x
CCC(C)NC(=O)c1cc(-c2ccccc2O)on1 (stereo unspecified)	-1.3	2	25	-29	5%	Arbovirus anti repeat=8
CC1(C)CC(=O)c2c(Cc3ccccc3)noc2C1	0.4	1	1	x	1%
Cc1nc(Cl)sc1C(=O)O	-0.9	10	-2	-25	-1%
CCS(=O)(=O)N1CCC(C(=O)NCc2cccnc2)CC1	-2.5	-2	6	-29	0%
COc1cc(/C=N/Nc2ccccc2[N+](=O)[O-])ccc1OC(=O)c1ccccc1F	1.0	9	0	x	1%
CN(c1cccc(NS(=O)(=O)c2cccc([N+](=O)[O-])c2)c1)S(C)(=O)=O	-0.7	-12	1	x	-1%
O=c1sc2ccccc2c(N2CCOCC2)c1[N+](=O)[O-]	1.5	-3	x	x	x
CC(=O)c1cccc(S(=O)(=O)N(Cc2cc3cc4c(cc3[nH]c2=O)OCCO4)CC2CCCO2)c1 (stereo unspecified)	-2.2	0	1	-32	-2%

No new results follow: entries from further up.
SMILES	RecA intein inh	Mtb betalactam	Arbovirus anti	YopH inh	Mtb growth	others
CCC(C)NC(=O)c1cc(-c2ccccc2O)on1 (stereo unspecified)	-1.3	2	25	-29	5%	Arbovirus anti repeat=8
CC1(C)CC(=O)c2c(Cc3ccccc3)noc2C1	0.4	1	1	x	1%
Cc1nc(Cl)sc1C(=O)O	-0.9	10	-2	-25	-1%

Continued.
SMILES	RecA intein inh	Mtb betalactam	Arbovirus anti	YopH inh	Mtb growth	others
CC(C)(C)OC(=O)[C@H](Cc1ccccc1)NC(=O)c1nc[nH]c1C(=O)NC1CCN(C(=O)OC(C)(C)C)CC1	0.4	-3	-20	x	9%
COc1cccc(OCCNC(=O)c2cc([N+](=O)[O-])cc([N+](=O)[O-])c2)c1	-2.1	100	13	x	<0.2µM*
Cc1cccc(NC(=O)c2ccc(Cl)nc2)n1	0.3	-5	x	x	x
CCOC(=O)N1CC=C2C(C#N)=C(N)C(C#N)(C#N)[C@H](c3ccc(OCC)c(OCC)c3)[C@H]2C1	8.3	-9	13	-33	9%
Cc1cc(NC(=O)Nc2cccc([N+](=O)[O-])c2)no1	-18	-6	3	x	1%
Cc1cc(Oc2ccccc2)nc(SCC(N)=O)n1	2.0	-13	-1	-14	-4%
Cc1cc(NC(=O)CCC(=O)N(c2cccc(F)c2)C(C(=O)NC2CCCC2)c2ccc(C)o2)no1 (stereo unspecified)	-1.8	-4	x	x	x
O=C(C1=NNCC1c1ccccc1)C1CO1 (stereo unspecified)	16	x	13	-29	26%
CC(C)c1ccc(NC2CCCN(C(=O)c3cccc(N4CCNC4=O)c3)C2)cc1 (stereo unspecified)	1.6	-3	x	x	x
Cc1nccn1CCCNC(=O)CC1C(=O)NCCN1Cc1ccc(F)cc1Cl (stereo unspecified)	-8.8	8	x	x	x
N#Cc1cc([N+](=O)[O-])cnc1NCC(O)CO (stereo unspecified)	-5.5	-3	3	-16	-9%
CC(C)NC(=O)NC(=O)CSc1nnc(C(F)(F)F)n1C	-0.3	0	10	x	-2%
N#CCCCN1C(=O)C(O)(CC(=O)c2ccc3c(c2)OCCO3)c2ccccc21 (stereo unspecified)	6.0	2	-14	-30	-8%
Cc1[nH]c(=O)c(C(=O)/C=C/c2ccccc2F)c2c1CCCC2	0.2	81	-29	-39	9%
CCOC(=O)c1c(C)[nH]c(C)c1C(=O)COC(=O)c1ccc(Cl)c(S(N)(=O)=O)c1	3.8	-1	-3	-27	-9%

3 entries out of the list, arranged by SMILES length, rising.
SMILES	RecA intein inh	Mtb betalactam	Arbovirus anti	YopH inh	Mtb growth	others
Cc1cccc(NC(=O)c2ccc(Cl)nc2)n1	0.3	-5	x	x	x
N#Cc1cc([N+](=O)[O-])cnc1NCC(O)CO (stereo unspecified)	-5.5	-3	3	-16	-9%
CC(C)NC(=O)NC(=O)CSc1nnc(C(F)(F)F)n1C	-0.3	0	10	x	-2%

Going on with the list.
SMILES	RecA intein inh	Mtb betalactam	Arbovirus anti	YopH inh	Mtb growth	others
CC1=C(C(=O)OCC2CCCO2)C(c2ccccc2Cl)NC(=O)N1 (stereo unspecified)	1.9	-12	12	-25	-11%
Cc1cccc(C(=O)NC2CCN(CC(=O)Nc3ccc4c(c3)OCO4)CC2)c1	-0.4	-4	-20	x	1%
O=C(CNC(=S)N(Cc1ccccc1)Cc1cccnc1)NC1CCCCC1	0.6	-6	0	3	1%
Cc1nn2c(-c3ccccc3)nnc2c2ccccc12	x	-1	-10	-25	-8%
COC(C[C@@H](O)CC(=O)COCc1ccccc1)OC	2.3	x	x	x	-10%
Cc1ccc(NC(=O)C(C)OC(=O)CCC2CCCCC2)cc1 (stereo unspecified)	3.5	-4	x	x	x
COc1ccc(N(CC(=O)NCc2ccccc2)C(=O)CCC(=O)Nc2cc(C)ccn2)c(OC)c1	1.0	0	x	x	x
CCOC(=O)CSc1nnc(CSc2nc3sc4c(c3c(=O)[nH]2)CCC4)n1C	x	-3	10	-28	-4%	Arbovirus anti repeat=3
Cn1c(=O)oc2cc(S(=O)(=O)NCc3ccc(C(=O)O)cc3)ccc21	x	-6	x	x	1%
CC(C)CCN1CC(C(=O)NC(C)C)CC1=O (stereo unspecified)	8.9	1	2	-30	-6%
COc1cc2c(cc1NCc1ccc3c(c1)OCO3)oc1ccccc12	1.3	74	-13	5	89µM*
C1CCN(C2CCN(c3nc4nonc4nc3N3CCSCC3)CC2)C1	x	1	-1	x	-6%
CCCS(=O)(=O)N1CCCC(C(=O)NCc2ccco2)C1 (stereo unspecified)	2.1	-11	7	-31	1%
COc1ccc(-c2nc(SCC(=O)NC3CCCCC3)n[nH]2)cc1	1.7	-1	x	x	x
Cn1c(SCC(=O)c2ccc(F)cc2)nnc1-c1ccccc1N	0.0	-5	6	-34	-7%
O=C(NC1CCCC1)c1ccc2c(c1)N(Cc1ccccc1)CCS2	-5.2	0	x	x	x
CCOC(=O)Nc1ccc2c(CN3CCN(S(=O)(=O)c4ccccc4)CC3)cc(=O)oc2c1	-0.3	0	-20	16	1%
CCOCCCNC(=O)C1CCN(c2cc(C)nc3c(-c4ccc(OC)c(OC)c4)c(C)nn23)CC1	-12	-2	-10	10	4%
CCCNC(=O)CSc1nnc(-c2ccco2)n1C	x	-8	8	-42	4%
COCc1cc([C@@H]2C[C@H]3CN(c4ccccc4)C(=O)[C@]34CCCN24)ccc1OC	-2.4	3	-10	x	0%
Clc1ncnc2c1oc1ccccc12	-0.1	-6	-5	8	-9%
COC(=O)CCC(=O)Nc1ccc(N=Nc2ccccc2)cc1	2.2	11	-1	x	2%
CCCS(=O)(=O)N1CCCC(C(=O)N2CCOCC2)C1 (stereo unspecified)	-1.2	-11	2	-9	3%
COc1ccc(C(=O)N/C(=C\c2cn(C)c3ccccc23)C(=O)OCC(C)C)cc1	-1.0	5	-1	-3	x
O=C1CC(N2CCN(C3CC(=O)N(CCc4ccccc4)C3=O)CC2)C(=O)N1CCc1ccccc1 (stereo unspecified)	-1.1	2	-1	-42	-5%
Cn1cnnc1SCC(=O)NCCC(c1ccccc1)c1ccccc1	1.8	-3	3	29	-5%
CCOc1ccccc1N1CCN(C(=O)CCNS(=O)(=O)c2ccccc2F)CC1	0.0	-6	x	x	x
CCOC(=O)C1(C/C(C)=N/NC(N)=O)CC(C)OC1=O (stereo unspecified)	-1.0	-2	7	-9	1%
CC(=O)c1c(N)[nH]c(-c2ccccc2)nc1=S	-0.1	73	-7	-59	21%
CCOc1ccc2[nH]c(S(=O)(=O)CC)nc2c1Cl	-6.7	-3	7	-26	-1%
O=c1ccc(Oc2nc(N3CCOCC3)nc(N3CCOCC3)n2)n[nH]1	-1.8	4	5	-1	-7%
Cc1nc(CCNC(=O)CC2C(=O)NCCN2Cc2ccoc2)nc2c1CCCC2 (stereo unspecified)	-0.4	-2	-3	x	-2%
CCOc1ncccc1C(=O)N(CC)CC(=O)NCc1ccc(Cl)cc1	-1.9	-1	x	x	x
COC(=O)c1sc(NC(=O)CSc2nnnn2-c2cccc(OC)c2)nc1C	-0.5	-2	-10	-21	0%
O=C(NCCC(=O)N1CCC2(CC1)NCCc1[nH]cnc12)c1cccc(Cl)c1	3.5	4	x	x	x
Cc1ccccc1CC(=O)Nc1cc(C(C)(C)C)on1	1.7	-3	x	x	x
COC(=O)CCC(=O)OC1(C)C(=O)C=C2C=C3CCCN3C=C2C1=O (stereo unspecified)	-3.4	8	x	x	-3%
CCOC(=O)c1sc(NC(=O)CCCCCN2C(=O)c3cccc4cccc(c34)C2=O)nc1C	x	x	-15	-27	-10%
Cc1cccc(-c2ncc(CN3CCCC(CO)(Cc4ccccc4C)C3)cn2)c1 (stereo unspecified)	11	21	-17	x	19%

An excerpt; the hit share may differ from the screen's.
